# NPYLR7 agonist: mosquito NPYLR7 agonism | HEK293T NPYLR7/Galpha15, GCaMP6s calcium fluorescence | activation, % at 10 µM | hit rate 0.15% among 270,000 | AID 1259423; in the data active = activation above about 40%;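 also: 0% = vehicle and 100% = reference agonist at the receptor; some compounds past the cut are filed as inactive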
# NPYLR7 agonist max-min: also measured in NPYLR7 agonist; calls as there; activation, %; measured here: Max-Min RFU normalised activation; some inactives read as strong as hits;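 span of the calcium signal over five minutes; 0% = vehicle and 100% = native peptide agonist; compound fluorescence can raise it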
# * marks the source's active call; other numbers are inactive results; & = joins results of further samples.
[1] C=CCc1cc(CN2CCN3CCN(C)C(=O)C3C2)cc(OC)c1O (configuration not stated)
  NPYLR7 agonist: 3.6 | NPYLR7 agonist max-min: 0.8
[2] COc1ccc(Cl)cc1C(=O)Nn1cnc2c(cnn2-c2ccc(C)c(C)c2)c1=O
  NPYLR7 agonist: 4.9 | NPYLR7 agonist max-min: 1.2
[3] COc1ccc(C(CC(=O)O)NC(=O)CCc2ccccc2OC)cc1 (configuration not stated)
  NPYLR7 agonist: 0.8 | NPYLR7 agonist max-min: 7.2
[4] CC(C)NS(=O)(=O)c1ccc(NC(=O)CCCc2cccs2)cc1
  NPYLR7 agonist: 5.9 | NPYLR7 agonist max-min: 3.1
[5] CCC(=O)Nc1ccc(NCc2ccc(-c3ccccc3)cc2)cc1
  NPYLR7 agonist: 11.2 | NPYLR7 agonist max-min: 5.5
[6] O=C(CC1Sc2ccccc2NC1=O)NCCc1ccc(OC(F)F)cc1 (configuration not stated)
  NPYLR7 agonist: 4.3 | NPYLR7 agonist max-min: 9.1
[7] CCOC(=O)c1nn(-c2ccccc2)c(=O)cc1N1CCN(c2ccccc2F)CC1
  NPYLR7 agonist: 10.3 | NPYLR7 agonist max-min: 5.3
[8] Cc1ccc(S(=O)(=O)N2CCN(c3cc(Cl)ccc3Cl)CC2)cc1
  NPYLR7 agonist: -0.7 | NPYLR7 agonist max-min: -0.7
[9] CC1CCCN(C(=O)c2cn(C)c3c(=O)n(-c4ccc(Cl)cc4)c(=O)[nH]c23)C1 (configuration not stated)
  NPYLR7 agonist: -0.1 | NPYLR7 agonist max-min: -3.3
[10] CN(CC(=O)N1CCCCC1C(C#N)c1ccccc1)S(C)(=O)=O (configuration not stated)
  NPYLR7 agonist: 1.1 | NPYLR7 agonist max-min: -2.0
[11] C=CCn1cc(CN2CCCN(C(=O)OCc3ccccc3)CC2)c(C)n1
  NPYLR7 agonist: 13.0 | NPYLR7 agonist max-min: -0.7
[12] Cc1ccc(OCC(=O)NC(C)c2ccc(F)cc2)cn1 (configuration not stated)
  NPYLR7 agonist: 12.8 | NPYLR7 agonist max-min: 14.4
[13] O=C(COc1ncnc2sccc12)c1ccc[nH]1
  NPYLR7 agonist: 7.7 | NPYLR7 agonist max-min: 9.2
[14] CN(C)C(=O)c1ccccc1-c1cccc(Cl)c1
  NPYLR7 agonist: -0.2 | NPYLR7 agonist max-min: -2.4
[15] CC(C)n1cc(NC(=O)N2CCN(C(=O)C(C)(C)C)CC2)cn1
  NPYLR7 agonist: -21.7&6.4 | NPYLR7 agonist max-min: -23.2&3.2
[16] CC(=O)Nc1cncc(-c2cccc(N(C)C)c2)n1
  NPYLR7 agonist: 5.3 | NPYLR7 agonist max-min: 2.1
[17] COc1cccc(CC2(CO)CCN(Cc3cnc(N4CCOCC4)s3)CC2)c1
  NPYLR7 agonist: -3.7 | NPYLR7 agonist max-min: 1.6
[18] Cc1noc(C)c1CC(=O)Nc1ccc(N2CCCC2=O)c(Cl)c1
  NPYLR7 agonist: -1.7 | NPYLR7 agonist max-min: -2.1
[19] Cn1cc(S(=O)(=O)N2CCCCC2)cc1C(=O)Nc1cnc2ccccc2c1
  NPYLR7 agonist: 7.0 | NPYLR7 agonist max-min: 5.4
[20] c1cc(N2CCCC(c3nnc4n3CCCCC4)C2)nc(-n2ccnc2)c1 (configuration not stated)
  NPYLR7 agonist: -1.6 | NPYLR7 agonist max-min: 1.6
[21] Fc1ccc(Cn2ncc3c2CN(c2nc4ccccc4s2)C3)cc1
  NPYLR7 agonist: -4.1 | NPYLR7 agonist max-min: -8.3
[22] CC1(C(=O)NCCc2c[nH]c3ccccc23)CCN1CCOc1ccccc1 (configuration not stated)
  NPYLR7 agonist: -1.7 | NPYLR7 agonist max-min: -1.9
[23] Cc1ccnc(NC(=O)Cc2cc(-c3cc4ccccc4o3)on2)c1
  NPYLR7 agonist: 3.7 | NPYLR7 agonist max-min: 7.3
[24] O=C(c1cn(CCc2ccccc2)nn1)N1CCC(OCc2ccccn2)CC1
  NPYLR7 agonist: 0.0 | NPYLR7 agonist max-min: -3.3
[25] CCCC(=O)N1CCN(c2nccc(-c3ccc(N4CCOCC4)cc3)n2)CC1
  NPYLR7 agonist: -6.6 | NPYLR7 agonist max-min: -8.8

[26] COc1ccc(NC(=O)C(=O)N2CCCCC(N3CCCC3)C2)cn1 (configuration not stated)
  NPYLR7 agonist: 15.9 | NPYLR7 agonist max-min: 11.7
[27] Cc1cccc(OC2CN(c3nc(-c4ccccn4)nc4c3CCNC4)C2)c1
  NPYLR7 agonist: 13.9 | NPYLR7 agonist max-min: 10.3
[28] COc1ccc(-c2nnc(SCC(=O)OCc3ccccc3)n2-c2ccc(Cl)c(Cl)c2)cc1
  NPYLR7 agonist: -0.1 | NPYLR7 agonist max-min: 11.2
[29] Cc1cc(Br)cc(C)c1Nc1ncnc(N)c1[N+](=O)[O-]
  NPYLR7 agonist: 0.1 | NPYLR7 agonist max-min: -1.3
[30] COC1CCCC1NC(=O)c1ccc(C(=O)NC2CCCC2OC)s1 (configuration not stated)
  NPYLR7 agonist: 0.6 | NPYLR7 agonist max-min: 6.5
[31] CCCC(=O)C1=C(c2cccc(OC)c2)N(C(=O)CCC)n2cnnc2S1
  NPYLR7 agonist: 3.8 | NPYLR7 agonist max-min: 3.2
[32] CCC1c2cccn2CCN1C(=O)c1cccc(C#CC(C)(C)O)c1 (configuration not stated)
  NPYLR7 agonist: 1.1 | NPYLR7 agonist max-min: 0.3
[33] CCCCn1c(=O)n(C)c(=O)c2ccc(-c3ccc(Cl)cc3)nc21
  NPYLR7 agonist: -8.2 | NPYLR7 agonist max-min: -10.9
[34] Cc1n[nH]c(C)c1CNCc1cccc(OC2CCCC2)c1
  NPYLR7 agonist: 4.9 | NPYLR7 agonist max-min: 5.1
[35] Cc1cnn(C2CN(c3ccc(S(=O)(=O)C(F)(F)F)cc3)C2)c1
  NPYLR7 agonist: 20.9 | NPYLR7 agonist max-min: 19.7
[36] CCc1noc(COc2c(C)nn(C)c2C)n1
  NPYLR7 agonist: 14.7 | NPYLR7 agonist max-min: 9.4
[37] CCn1nnc2c(SCC(=O)NC3CCCC3)ncnc21
  NPYLR7 agonist: 0.3 | NPYLR7 agonist max-min: 3.0
[38] c1cnc2cc(Oc3ccc4nccnc4c3)ccc2n1
  NPYLR7 agonist: 7.0 | NPYLR7 agonist max-min: 1.8
[39] Cn1nc(C(=O)N2CC[C@@](C)(O)[C@@H](Cc3ccccc3)C2)c2ccccc21
  NPYLR7 agonist: 2.3 | NPYLR7 agonist max-min: 0.7
[40] Nc1nccnc1C(=O)OCC(=O)c1ccc[nH]1
  NPYLR7 agonist: -1.8 | NPYLR7 agonist max-min: -2.3
[41] Cc1noc(-c2ccc(Oc3ccc(CN4CCCC4)cc3F)nc2)n1
  NPYLR7 agonist: 38.3 | NPYLR7 agonist max-min: 23.6
[42] O=C(CCc1ccccc1)N(Cc1nccn1Cc1ccccc1C(F)(F)F)CC1CCCO1 (configuration not stated)
  NPYLR7 agonist: 18.0 | NPYLR7 agonist max-min: 25.3
[43] CCCC1COC(c2ccc(C#N)cc2)OC1 (configuration not stated)
  NPYLR7 agonist: -13.3 | NPYLR7 agonist max-min: -20.1
[44] CCCn1ccnc1CN1CC[C@@]2(O)CCCC[C@H]2C1
  NPYLR7 agonist: -0.6 | NPYLR7 agonist max-min: -3.8
[45] Cc1ccsc1-c1nccn1CCc1ccco1
  NPYLR7 agonist: -1.6 | NPYLR7 agonist max-min: -5.8
[46] CCOc1ccc(CCNc2cc(C)nn3cnnc23)cc1OCC
  NPYLR7 agonist: -0.7 | NPYLR7 agonist max-min: -1.3
[47] CCCC1CCC(c2nc(-c3ccc(-c4ccc(F)cc4)cc3)no2)CC1 (configuration not stated)
  NPYLR7 agonist: -3.9 | NPYLR7 agonist max-min: -9.6
[48] CN(CC(=O)N1CCCC1)C(=O)c1ccc(=O)n(-c2ccc(F)cc2)n1
  NPYLR7 agonist: 1.8 | NPYLR7 agonist max-min: 3.2
[49] CCc1nc(SCc2ncc(C(C)(C)C)o2)n[nH]1
  NPYLR7 agonist: 0.1 | NPYLR7 agonist max-min: -0.2
[50] CC(CCc1ccccc1)N=c1c([N+](=O)[O-])nn(-c2ccccc2)n1O (configuration not stated)
  NPYLR7 agonist: -14.1 | NPYLR7 agonist max-min: -23.0

[51] CCCC(=O)N1CCC1(C)C(=O)NCc1sccc1C (configuration not stated)
  NPYLR7 agonist: 7.9 | NPYLR7 agonist max-min: 3.3
[52] CC(C)[C@@H]1CC[C@@H](C)C[C@H]1OCC(=O)N1CCCN(Cc2cc(=O)c(OCc3ccc(C(F)(F)F)cc3)co2)CC1
  NPYLR7 agonist: -4.9 | NPYLR7 agonist max-min: -6.2
[53] S=c1[nH]nc(C2CC2)n1C1CCCCC1
  NPYLR7 agonist: -7.8 | NPYLR7 agonist max-min: -4.7
[54] Cc1cc(C)cc(NC(=O)C(=O)N2CCC3(CC2)CN(C)CCN3C)c1
  NPYLR7 agonist: -2.2 | NPYLR7 agonist max-min: -3.8
[55] CC1CCC(C(C)C)C(OC(=O)Cn2cnnc2C#N)C1 (configuration not stated)
  NPYLR7 agonist: -1.7 | NPYLR7 agonist max-min: 32.3
[56] COC(=O)c1cc(COc2ccc3c(C)c(C)c(=O)oc3c2C)c(C)o1
  NPYLR7 agonist: -11.3 | NPYLR7 agonist max-min: -15.7
[57] CCOc1ccc(-c2nnc3ccc(SCC(=O)Nc4ccccc4OC)nn23)cc1
  NPYLR7 agonist: 15.8 | NPYLR7 agonist max-min: 12.9
[58] Fc1cccc(C2(CNc3cncc(Cl)n3)CCOCC2)c1
  NPYLR7 agonist: 8.2 | NPYLR7 agonist max-min: 7.7
[59] COC(=O)c1cc(-c2csc(NC(=O)C3=C(Cl)CCCC3)n2)c[nH]1
  NPYLR7 agonist: -2.1 | NPYLR7 agonist max-min: -5.4
[60] CN1CCN(c2nc(-c3ccccc3)nc3c2oc2ccccc23)CC1
  NPYLR7 agonist: 7.6 | NPYLR7 agonist max-min: 3.9

# This is a subset; the hit share may differ from the screen's.
